# A647 fluor = compound autofluorescence in A647 spectral region. Compound fluorescence, A647 channel (570/671 nm), Tris buffer. max dye-equivalent concentration, M. 59,000 tested, under 10 active. AID 592; active means above 1 µM dye equivalent; inconclusive means 0.1 to 1 µM; inactive means 0.1 µM or less;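 note: values scaled relative to a standard on each plate; highest value over a series up to 38 µM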
#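 Fluorescence read (570 nm ex, 671 nm em) after 15 min RT incubation of compounds in 100 mM Tris buffer, pH 8.0; values expressed as dye-equivalent concentration against a six-point A647 standard series on each plate.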
# A488 autofl = compound autofluorescence in A488 spectral region. compound autofluorescence, A488 spectral region, dye equivalency; active compounds read high. max dye equivalency, M. 59,000 compounds, 0.1% hits; active = above 10 nM dye equivalent; inconclusive = 1 to 10 nM; inactive = 1 nM or less; about half of its hits are not listed in these tables;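 note: highest value over a series up to 38 µM; compound alone in buffer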
#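 Autofluorescence read at ex 480/em 540 nm after 15 min RT in 100 mM Tris pH 8.0; compound signal normalized to A488 standard series on each plate, reported as dye-equivalent concentration at each test concentration.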
# TSHR ag = TSH receptor (human) agonism; P16473; HEK293-CNG-TSHR cells (CNG channel as cAMP sensor), membrane potential dye, cAMP; Potency, µM (highest dose often 57.1 µM), inactives show top-dose activation, hits mostly activators; 73,000 compounds, 0.48% hits; AID 926; active = well fitted activation curve of enough size with the parental cells flat; inconclusive = any curve in the parental cells; inactive = parental cells flat and receptor cells flat or falling; note: potency is the fitted concentration of half-maximal effect; % of control where 0% means no effect; weak receptor curves with flat parental cells got no call and are not listed
# Target sequence (P16473 whole entry, looked up): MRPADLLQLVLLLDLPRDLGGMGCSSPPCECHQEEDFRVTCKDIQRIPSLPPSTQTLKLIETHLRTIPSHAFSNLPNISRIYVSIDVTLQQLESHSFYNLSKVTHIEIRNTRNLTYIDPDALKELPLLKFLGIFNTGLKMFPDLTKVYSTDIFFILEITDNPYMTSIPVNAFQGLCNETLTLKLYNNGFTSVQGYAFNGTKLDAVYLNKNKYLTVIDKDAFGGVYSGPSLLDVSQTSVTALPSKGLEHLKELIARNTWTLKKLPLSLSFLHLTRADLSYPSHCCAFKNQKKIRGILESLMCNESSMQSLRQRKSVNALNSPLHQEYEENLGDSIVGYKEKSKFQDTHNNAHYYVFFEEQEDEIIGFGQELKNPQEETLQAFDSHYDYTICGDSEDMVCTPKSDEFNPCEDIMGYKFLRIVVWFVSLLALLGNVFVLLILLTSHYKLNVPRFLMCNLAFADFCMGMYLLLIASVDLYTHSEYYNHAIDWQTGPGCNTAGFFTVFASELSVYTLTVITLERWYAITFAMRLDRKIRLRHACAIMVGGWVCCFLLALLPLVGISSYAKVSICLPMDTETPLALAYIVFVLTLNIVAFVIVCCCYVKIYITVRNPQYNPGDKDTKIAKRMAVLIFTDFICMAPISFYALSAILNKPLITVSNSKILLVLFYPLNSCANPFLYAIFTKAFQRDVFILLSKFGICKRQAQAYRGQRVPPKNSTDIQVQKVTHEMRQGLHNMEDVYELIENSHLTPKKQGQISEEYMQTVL
#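 HEK 293 cells stably expressing TSHR and a cAMP-gated CNG channel; parental CNG-only cells as counterscreen. Cells preloaded 60 min with membrane potential dye plus 100 uM RO 20-1724, then compound 30 min; fluorescence read at 590 nm.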
# Resorufin autofl = compound fluoresces in the resorufin spectral region; Compound fluorescence, resorufin region 547/598 nm, buffer; active compounds read high; max dye-equivalent concentration, M; 59,000 compounds, 0.04% hits; AID 588; active = above 10 nM dye equivalent; inconclusive = 1 to 10 nM; inactive = 1 nM or less; a few of its hits are not listed in these tables; note: highest value over a series up to 38 µM
#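 Compounds in 100 mM Tris buffer, pH 8.0, incubated 15 min at room temperature, then read with 547 nm excitation and 598 nm emission filters. Fluorescence was converted to dye-equivalent concentration using an on-plate six-point resorufin standard curve.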
# AID923 = qHTS Assay for Allosteric/Competitive Inhibitors of Caspase-1: Spectroscopic Profiling in AFC Spectral Region; AID 923, 2007; compound fluorescence, AFC spectral region (405/520 nm); almost no hit is shown here; 75,000 compounds, 1.1% hits; Potency, µM (top dose mostly 57.5 µM), for inactives: at the highest dose fluorescence increase, actives largely listed as activators; active = well fitted activation curve with a large enough effect; inconclusive = small, poorly fitted or top-dose-only effect;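 note: potency is the fitted concentration of half-maximal effect; 0% is about no effect; scaled to a free AFC standard on each plate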
#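 Titrations up to 57 uM read every 20 sec for 3 min (405/520 nm) with 50 nM caspase 1 and 5 uM Ac-WEHD-AFC, pH 7.5 HEPES buffer. Fluorescence-vs-time intercept gave baseline, scaled against on-plate AFC standard.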
# Active calls of the source: *; i = inactive; ? = inconclusive; · = no result given; [ ] = dose if it differs, or a comment. Some of the compounds tested; the hit share may differ from the screen's.
SMILES,A647 fluor,A488 autofl,TSHR ag,Resorufin autofl,AID923
O=C(CSc1nnnn1-c1ccc(Cl)cc1)N1CCc2ccccc2C1,1.5e-08,i,?,i,-0.6%
CNc1ccccc1C(=O)OCC(C)=O,·,·,-9%[11.4 µM],·,-0.6%[11.5 µM]
COc1ccc(N2CC(C)Cn3c2nc2c3c(=O)n(CCc3ccccc3)c(=O)n2C)cc1 (stereo not drawn),1e-09,i,-5%,i,1.4%
COc1ccc(COC(=O)N/N=C2/C[C@@H](O)[C@@H](O)[C@@H]3[C@@H]4C(=O)N(Cc5ccccc5)C(=O)[C@H]4CC[C@H]23)cc1,·,·,?,·,0.3%[11.5 µM]
Cn1c(=O)c(-c2cc(F)cc(F)c2)nc2cncnc21,2.7e-08,i,·,i,11%
CCOC(=O)c1c(C)c(C(=O)N2CCCCCC2)c(C)n1CC,1e-09,i,5%[11.4 µM],i,0.9%
CC1(C)C2CCC1(C)C(OC(=O)CCn1ccnc1)C2 (stereo not drawn),1e-09,i,-10%,i,0.7%
CCCN(CCO)Cc1ccc(F)c(Br)c1,·,·,11%,·,-0.4%
N#CCSc1nnc(-c2cccnc2)n1-c1ccccc1,1e-09,i,-3%,i,-3.5%
Cc1ccc(C)n1NC(=O)c1ccc(Cl)cc1Cl,1e-09,i,14%,i,-0.9%
CNC(=O)C1CC(=O)N(Cc2ccccc2)C(=Nc2ccc(OC)cc2)S1 (stereo not drawn),2e-08,i,·,i,·
COc1ccc(CCN2C(=O)c3[nH]nc(-c4ccccc4O)c3C2c2cccc(O)c2)cc1OC (stereo not drawn),3e-09,i,14%,i,0.9%
Cc1cc(C)c(C#N)c(N2CCSCC2)n1,2.8e-09,i,·,i,2.4%
Cc1occc1C(=O)Nc1ccc2ccccc2c1,·,·,9%,·,-2.9%
Cc1ccc(Nc2nc(C(=O)NCCCN3CCOCC3)cs2)cc1,1e-08,i,2%,i,0.5%
Cc1sc2ncnc(SCC(=O)N3CCCC3=O)c2c1C,1e-09,i,4%,i,1.4%
O=C(OC1CCOC1=O)c1cncc(Br)c1 (stereo not drawn),1.8e-08,i,1%,i,-1.2%
Cc1cc(C(C)(C)C)cc(CNC2CCCCC2)c1O,4.5e-08,i,3%[11.4 µM],i,0.3%[11.5 µM]
Cc1nn(C)c(C)c1S(=O)(=O)NC1CCCc2ccccc21 (stereo not drawn),5.1e-09,i,10%,i,0.1%
CN(CCc1ccccn1)Cc1ccc(Cl)cc1,1e-09,i,·,i,-0.3%
Cc1ccc2c(c1)C1CCCC3C1N2CC(=O)N3Cc1ccccc1 (stereo not drawn),·,·,-1%,·,1.4%
Cc1c(O)c(=O)ccn1C,·,·,0%[11.4 µM],·,1.4%[11.5 µM]
CCOC(=O)Cn1c(=O)n(C2CCCC2)c(=O)c2ccccc21,1e-09,i,27%,i,0.1%
O=C(Nc1cccnc1)c1cc(-c2ccc(Br)cc2)on1,·,·,4%,·,-0.7%
Cc1ccc(N(C(=O)CC2NC(=O)NC2=O)C2(C(=O)NC3CCCC3)CCCCC2)cc1 (stereo not drawn),1.4e-08,i,4%,i,0.8%
Cc1ccc(CNc2nc3ccccc3n3nnnc23)cc1,2.6e-08,i,13%,i,4.9%
CCOC(=O)c1c(C)c(C(=O)Nc2cc(OC)ccc2OC)c(C)n1CC,1e-09,i,8%[11.4 µM],i,-1.5%
COc1ccc(-n2c(=O)c3c4c(sc3n(CC(=O)NCc3ccco3)c2=O)CCC4)c(OC)c1,8.3e-09,i,10%,i,0.8%
COc1ccc(-n2nc3ccc(NS(C)(=O)=O)cc3n2)cc1Cl,1.8e-08,i,4%,i,5.0%
O=C(Nc1cccc(-c2cn3cccnc3n2)c1)c1ccco1,1.8e-08,i,4%,i,0.8%
S=C(Nc1ccc2c(c1)Cc1ccccc1-2)Nc1ccc2c(c1)Cc1ccccc1-2,5.6e-09,i,-5%[11.4 µM],i,-2.1%[11.5 µM]
O=C(Nc1cccnc1)c1ccc(CN2CCc3ccccc3C2)cc1,·,·,?,·,0.3%
C/C=C\C1=C(CO)C(=O)[C@@H]2OC2C1=O (stereo partly drawn),·,·,9%[11.4 µM],·,-1.1%[11.5 µM]
CCCOc1cccc(-c2nnc(N)s2)c1,1e-09,i,·,i,·
O=c1cc(N2CCOCC2)[nH]c(=O)n1Cc1ccc(F)cc1,·,·,-5%,·,0.6%
c1ccc2c(N3CCCC3)nc(-c3ccncc3)nc2c1,3.8e-08,i,?,i,-0.7%
CC1CCC(NC(=O)Cn2ncc3ccccc32)CC1 (stereo not drawn),·,·,-7%,·,-0.9%
CSc1nc(N2CCOCC2)c2c3c(sc2n1)CCCC3,3.4e-09,i,?,i,0.0%
O=S(=O)(NCc1ccccc1Br)c1cccs1,1.2e-08,i,21%,i,-0.8%
CCOC(=O)CN1C(=O)NC(C)(c2ccc(OC(F)F)cc2)C1=O (stereo not drawn),1.2e-08,i,6%,i,-0.3%

# Quoted from above (4 entries):
SMILES,A647 fluor,A488 autofl,TSHR ag,Resorufin autofl,AID923
O=c1cc(N2CCOCC2)[nH]c(=O)n1Cc1ccc(F)cc1,·,·,-5%,·,0.6%
c1ccc2c(N3CCCC3)nc(-c3ccncc3)nc2c1,3.8e-08,i,?,i,-0.7%
CC1CCC(NC(=O)Cn2ncc3ccccc32)CC1 (stereo not drawn),·,·,-7%,·,-0.9%
CSc1nc(N2CCOCC2)c2c3c(sc2n1)CCCC3,3.4e-09,i,?,i,0.0%

# Next section:
SMILES,A647 fluor,A488 autofl,TSHR ag,Resorufin autofl,AID923
Nc1nnnn1/N=C/c1cccc(Oc2ccccc2)c1,5.3e-08,i,·,i,·
O=C(Cc1ccccc1)Nc1ccc(C(=O)O)cc1,3.2e-08,i,-3%,i,-1.3%
FC(F)(F)c1ccccc1-c1cc(N2CCNCC2)ncn1,9.8e-09,i,4%,i,-0.9%
COCCn1cnnc1SCC(=O)Nc1ccccc1C(=O)Nc1ccc2c(c1)OCO2,9.3e-09,i,4%,i,0.2%
CS(=O)(=O)N1CCCC(C(=O)NCc2ccccn2)C1 (stereo not drawn),2.5e-09,i,3%,i,1.0%
CCN1CCN(c2nc3ccccc3nc2C(C#N)C(=O)OC2CCCCC2)CC1 (stereo not drawn),1e-09,i,?,i,2.8%
CC1(c2ccc3c(c2)OCO3)NC(=O)N(CC(=O)Nc2ccc(N3CCOCC3)cc2)C1=O (stereo not drawn),8.2e-09,i,2%,i,-1.3%
C=CCn1c(C)cc(C(=O)CSc2nnc(Cc3ccccc3)o2)c1C,1e-09,i,?,i,-0.5%
COCCNC(=O)c1ccc(Cn2c(=S)[nH]c3cc4c(cc3c2=O)OCO4)cc1,1e-09,i,1%,i,0.1%
CCCCCOC(=O)Nc1nnc(CCC)s1,·,·,22%,·,-4.1%
Cc1noc(C)c1-c1cncnc1N1CCN(C)CC1,3.5e-08,i,2%,i,0.9%
O=C(CSc1nccn1-c1ccccc1)Nc1ccc2c(c1)OCO2,1e-09,i,-1%[11.4 µM],i,1.9%
CCOC(=O)C(C)Sc1nnc(Cn2c(=O)sc3ccccc32)n1-c1ccccc1 (stereo not drawn),·,·,29%,·,2.3%
COc1cccc2c1N1C(=O)c3c(C(=O)O)cccc3C1CC2(C)C (stereo not drawn),·,·,-4%,·,0.2%
FC(F)(F)c1ccccc1-c1ccc2ncnc(NCCN3CCOCC3)c2c1,2.4e-08,i,?,i,1.6%
O=S(=O)(c1cccc(S(=O)(=O)N2CCC(N3CCCCC3)CC2)c1)N1CCOCC1,2e-08,i,3%,i,0.2%
O=C(O)C1CCCCN1S(=O)(=O)c1cccc2nsnc12 (stereo not drawn),1.6e-08,i,·,i,·
CCCc1[nH]nc2c1C(c1ccc(OC)c(Cn3nnc4ccccc43)c1)C(C#N)=C(N)O2 (stereo not drawn),1e-09,i,4%,i,-1.0%
O=C(NCc1cccs1)C1CCCN1C(=O)NC1CCCCC1 (stereo not drawn),2.3e-09,i,3%,i,-1.0%
COCc1cc(=O)n2[nH]c(-c3ccccc3)cc2n1,·,·,-12%,·,-0.2%
O=C(Nc1ccccc1NC(=O)c1ccco1)c1ccco1,·,·,2%,·,1.6%
COc1cccc(-n2c(SCC(=O)N3CCOCC3)nc3c([nH]c4ccccc43)c2=O)c1,1.3e-09,i,·,i,-0.5%
Cc1[nH]c(=O)[nH]c(=O)c1S(=O)(=O)Nc1ccc(Oc2ccccc2)cc1,3.7e-09,i,?,i,-2.3%
COc1cccc(C(=O)Nc2cccc(OC(C)=O)c2)c1,4.8e-08,i,3%,i,-3.3%
OCCOCCn1c2ccccc2c2ccccc21,1e-09,i,12%,i,-0.9%
CCCOC(=O)c1sc2nc3c(cc2c1N)C(=O)CCC3,1.9e-08,i,-1%,i,0.7%
Brc1ccc(-c2nnc3ccc(N4CCN(c5ccccc5)CC4)nn23)cc1,·,·,5%,·,2.8%
Cc1nc2cc(C(F)(F)F)ccc2n1C1CCN(CC(=O)N2CCOCC2)CC1,1.8e-08,i,-2%,i,1.7%
Cn1cccc1C(=O)N1CCC2(CCCN(c3ccccc3)C2)CC1,2.7e-08,i,?,i,0.7%
COc1ccc(NC2=NC3(CCCCC3)N=C(N)N2)cc1,2.6e-08,i,-4%,i,0.4%

# One compound at a time, as listed above. Values in the order: A647 fluor, A488 autofl, TSHR ag, Resorufin autofl, AID923
# Brc1ccc(-c2nnc3ccc(N4CCN(c5ccccc5)CC4)nn23)cc1 is entered as ·, ·, 5%, ·, 2.8%
# COc1ccc(NC2=NC3(CCCCC3)N=C(N)N2)cc1 is entered as 2.6e-08, i, -4%, i, 0.4%
# O=C(Nc1ccccc1NC(=O)c1ccco1)c1ccco1 is entered as ·, ·, 2%, ·, 1.6%

# Continuation:
SMILES,A647 fluor,A488 autofl,TSHR ag,Resorufin autofl,AID923
COc1ccc(OCCOC(=O)Nc2ccccc2)cc1,·,·,13%,·,-1.9%
Cc1cccc(NC(=O)c2oc3c(c2C)C(=O)CC(C)(C)C3)n1,6.7e-09,i,8%,i,0.4%
CCOC(=O)c1ccc(N=CC2=C(O)CC(C)(C)CC2=O)cc1,·,·,?,·,-2.0%
Cc1ccc(-n2c(Cc3cccn3C)nnc2SCC(=O)NCc2ccco2)cc1,9.5e-09,i,13%,i,0.4%
Cc1nn(-c2ccccc2)c2c1/C(=N/O)CC(C)(C)C2,1.9e-09,i,?,i,-0.6%
O=C(Cn1nc(C(F)(F)F)c2c1CCCC2)NCc1ccco1,5.1e-08,i,3%,i,-0.3%
COc1ccc(C(=O)N2CCN(c3ccc(C)cc3)CC2)cc1OC,·,·,6%,·,0.3%
COc1ccc(-n2c(=S)[nH]c3cc(C(=O)NCCCN4CCCC4=O)ccc3c2=O)cc1,7.3e-09,i,-7%,i,1.7%
Cc1ccc(CCNC(=O)CC2Oc3ccc(C)cc3NC2=O)cc1 (stereo not drawn),·,·,5%,·,-0.2%
COC(=O)C1(C(=O)OC)Sc2ccccc2C1=O,1e-09,i,-6%,i,0.7%

# Looked up one by one from the list above:
SMILES,A647 fluor,A488 autofl,TSHR ag,Resorufin autofl,AID923
CCOC(=O)c1ccc(N=CC2=C(O)CC(C)(C)CC2=O)cc1,·,·,?,·,-2.0%
O=C(Cn1nc(C(F)(F)F)c2c1CCCC2)NCc1ccco1,5.1e-08,i,3%,i,-0.3%

# Continued.
SMILES,A647 fluor,A488 autofl,TSHR ag,Resorufin autofl,AID923
COc1ccc(OCCCC(=O)Nc2ccc3c(c2)OCO3)cc1,·,·,17%,·,1.0%
Cn1c(=O)c2c(nc(SCCN3CCOCC3)n2Cc2cccc3ccccc23)n(C)c1=O,2.6e-08,i,23%,i,-2.4%
COc1cccc([C@H](O)Cn2cc(-c3cccc(CON=C(C)C)c3)nn2)c1,·,·,8%[11.4 µM],·,-0.9%[11.5 µM]
COc1cccc2cc(C(=O)N3CCN(c4ccc(C)cc4C)CC3)c(=O)oc12,·,·,5%,·,3.4%
Cc1cccc(N(C(=O)Nc2ccccc2)C2=NCC(C)S2)c1 (stereo not drawn),·,·,-9%,·,-0.4%
